Screening data as filed in PubChem BioAssay.
CtBP-E1A inh: qHTS Assay for Inhibitors of the CtBP/E1A Interaction. AlphaScreen GST-E1A/His-CtBP binding, 1536-well; stronger effect = lower value; control for the full effect not named in the record. 340,000 compounds, 0.49% hits. CtBP / adenovirus E1A interaction (AlphaScreen). AID 651724, 2012. activity change, % (no concentration beside the values); in the data active means activity change below about -65%; inconclusive means about -30% to -65%; inactive means above about -30%; note: % is set by controls: 0 for no effect and ±100 for the full control effect
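Steps: dispense buffer (Tris pH 8.0, NaCl 300 mM, TCEP 1 mM, BSA, Tween 20); add 5X protein mix (GST-E1A, His-CtBP, 125 nM each); pin 23 nL compound; 2 h at 37 °C, dark; add 5X beads (50 ug/mL); 1 h; read.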
Six1-Eya2 inh: qHTS Assay for Inhibitors of the Six1/Eya2 Interaction; AID 651725, 2012; 360,000 compounds, 0.56% hits; activity change, % (concentration not given with the values); AlphaScreen GST-Six1/His-Eya2 binding, biochemical; stronger effect = lower value; control for the full effect not named in the record; Homeobox protein SIX1 (Homo sapiens) + Protein phosphatase EYA2 (Homo sapiens), …; in the data active = activity change below about -65%; inconclusive = about -30% to -65%; inactive = above about -30%; note: % is set by controls: 0 for no effect and ±100 for the full control effect
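Compounds are tested against tagged Six1 and Eya2 proteins bridged by glutathione donor and nickel acceptor beads; after a one-hour incubation at 37 °C without light, AlphaScreen emission is recorded.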
D2 PAM: Beta-Arrestin HTS for Positive Allosteric Modulators of the Human D2 Dopamine Receptor: Potentiators; DiscoveRx D2 beta-arrestin cells, luminescence, 90 min; 100% = 57 uM dopamine signal; potentiation, % (no concentration beside the values); 360,000 compounds, 0.23% hits; AID 624464, 2012; active = potentiation of 50% or more; inconclusive = 30% to 50%; inactive = 30% or less;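 note: compound concentration not given in the record; tested on top of an EC20 dose of dopamine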
Target sequence (P14416 whole entry, looked up): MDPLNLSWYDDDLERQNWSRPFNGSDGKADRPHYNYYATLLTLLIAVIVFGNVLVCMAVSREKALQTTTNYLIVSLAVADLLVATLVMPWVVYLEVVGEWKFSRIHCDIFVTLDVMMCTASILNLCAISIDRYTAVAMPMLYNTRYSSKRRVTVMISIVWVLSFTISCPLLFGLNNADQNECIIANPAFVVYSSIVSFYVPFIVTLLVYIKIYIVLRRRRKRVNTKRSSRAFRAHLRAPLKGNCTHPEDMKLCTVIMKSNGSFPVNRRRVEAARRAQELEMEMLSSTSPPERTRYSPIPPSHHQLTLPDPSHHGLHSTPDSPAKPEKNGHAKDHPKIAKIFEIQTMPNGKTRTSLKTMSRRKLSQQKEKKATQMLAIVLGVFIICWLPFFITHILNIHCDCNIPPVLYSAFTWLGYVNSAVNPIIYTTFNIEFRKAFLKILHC
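D2 cells co-treated with compound plus 50 nM dopamine (EC20) for 90 min at 37 deg C to detect potentiation. Beta-arrestin recruitment was read as enzyme-fragment luminescence after 1 h at ambient temperature. Full response was set by 57 uM dopamine.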
TRPML1 ag: qHTS for Agonists of the Human Mucolipin Transient Receptor Potential 1 (TRPML1). activation, % (concentration not given with the values). Mucolipin-1 (Homo sapiens), Q9GZU1. 410,000 compounds, 0.12% hits. TRPML1-expressing cells, Ca2+ dye fluorescence, FDSS; host cell line not named in the record; reference of the full effect not given here; in the data active = activation above about 50%; inconclusive = about 30% to 50%; inactive = below about 30%; note: 0% is about no effect; the text of the record puts the active cut at 80%
Target sequence (Q9GZU1 whole entry, looked up): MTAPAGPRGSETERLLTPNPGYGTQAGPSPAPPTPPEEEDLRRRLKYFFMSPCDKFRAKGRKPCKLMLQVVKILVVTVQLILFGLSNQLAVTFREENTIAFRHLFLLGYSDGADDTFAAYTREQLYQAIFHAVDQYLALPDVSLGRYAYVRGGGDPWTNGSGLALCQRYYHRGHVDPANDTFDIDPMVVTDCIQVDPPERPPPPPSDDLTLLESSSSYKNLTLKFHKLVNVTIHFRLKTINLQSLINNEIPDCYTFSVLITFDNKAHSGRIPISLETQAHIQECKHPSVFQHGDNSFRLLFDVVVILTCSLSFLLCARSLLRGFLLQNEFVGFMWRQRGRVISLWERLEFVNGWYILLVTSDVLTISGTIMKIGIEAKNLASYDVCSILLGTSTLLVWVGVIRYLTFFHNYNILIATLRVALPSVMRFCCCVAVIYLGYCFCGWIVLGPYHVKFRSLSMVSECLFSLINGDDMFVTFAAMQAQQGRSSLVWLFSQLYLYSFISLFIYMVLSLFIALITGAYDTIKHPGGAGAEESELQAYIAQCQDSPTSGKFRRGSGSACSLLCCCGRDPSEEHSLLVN
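In this qHTS format, compounds were pin-transferred onto Ca8-dye-loaded TRPML1-DL cells induced with Tet overnight, and intracellular Ca2+ fluorescence was recorded kinetically for 110 s after a 10 s baseline. A subsequent 4uM final 54-4 (EC80) addition followed by a second 110 s read served as the antagonist phase.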
TRPV1 PAM: HTS Assay for Compounds that Act as Potentiators of the Vanilloid Receptor 1; potentiation, % at 8.33 µM; AID 540277, 2011; TRPV1-expressing cells, Fluo-8 calcium influx, capsaicin EC20 potentiation; host cell line not named in the record; control for the full effect not named in the record; 320,000 compounds, 0.02% hits; active means potentiation above 80%; inconclusive means 30% to 80%; inactive means below 30%; note: 0% is about no effect
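Cells expressing TRPV1 were dye-loaded with Fluo-8 and read kinetically: 10 s baseline, 3 min after compound (agonist portion), then 2 min after EC20 capsaicin (allosteric enhancer portion). Calcium-bound dye fluorescence at 480/520 nm.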
TRPML1 inh: qHTS for Inhibitors of the Human Mucolipin Transient Receptor Potential 1 (TRPML1); TRPML1-inducible cells, Ca2+ dye fluorescence, FDSS; stronger effect = lower value; inhibition of EC80 agonist-evoked calcium signal; 390,000 compounds, 0.02% hits; activity change, negative = inhibition, % (no concentration beside the values); Mucolipin-1 (Homo sapiens), Q9GZU1; in the data active means activity change below about -50%; inconclusive means about -30% to -50%; inactive means above about -30%;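 note: stimulus is agonist 54-4 at its EC80 concentration; % is set by controls: 0 for no effect and ±100 for the full control effect; compound concentration not given in the record; the text of the record puts the active cut at -80%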
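Tet-induced TRPML1-DL cells loaded with Ca8 no-wash calcium dye were read kinetically on FDSS. Compound addition was followed by EC80 agonist 54-4 (4 uM final); inhibition was read over 110 s.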
* marks the source's active call; other numbers are inactive results; ? = inconclusive; nt = no result given; & = joins results of further samples.

Order of results – TRPV1 PAM	TRPML1 ag	D2 PAM	CtBP-E1A inh	Six1-Eya2 inh	TRPML1 inh
- CC(=O)c1sc(NCCOc2ccc(C)cc2)nc1C
  4	1.3	-2	nt	-6	10
- COc1ccc(Cn2c(C3CC3)nc3ccc(NC(C)=O)cc3c2=O)cc1
  -6	-0.3	3	-14	-14	-1
- Cc1ccc(C(=O)OC(C)C(=O)NC2CCCCC2)cc1S(=O)(=O)N1CCCCC1 (stereo not drawn)
  -18	0.4	-7	nt	31	-9
- Oc1ccc(NCc2cccc(OCc3ccc(F)cc3)c2)cc1
  0	1.2	6	nt	1	9
- CCNC(=O)C1(C)CCN(Cc2csc(-c3ccccc3)n2)C1 (stereo not drawn)
  nt	0.2	-24	8	5	12
- O=[N+]([O-])c1cnc(Nc2ccc(Cl)cn2)c([N+](=O)[O-])c1
  -2	-0.2	9	-22	-28	13
- C=C1C[C@@]23CCC4[C@@](C)(CCC[C@@]4(C)C(=O)OC)C2CC[C@]1(OC(C)=O)C3 (stereo partly drawn)
  -8	1.1	-5	0	2	75
- CCOC(=O)c1cc2c(=O)n3ccccc3nc2n(Cc2ccco2)c1=NC(=O)c1ccc(Br)cc1
  17	1.3	nt	nt	nt	-20
- COc1ccccc1CCN=C(N)NS(=O)(=O)c1cccs1
  8	0.1	-9	nt	-2	7
- Cc1cc(C)c(C(=O)C(C)OC(=O)Cn2cnc3c2c(=O)n(C)c(=O)n3C)cc1C (stereo not drawn)
  -7	3.4	6	-8	5	-13
- S=c1[nH]nc(Cc2cccs2)n1-c1ccccc1Cl
  -3	1.0	-11	0	-3	-5
- COCc1cc(C)nc2sc(C(=O)Nc3ccc(OC)cc3)c(N)c12
  -12	1.0	0	1	1	5
- CCCN1CCN(S(=O)(=O)c2ccc3c(c2)CCC(=O)N3)CC1
  -10	3.5	1	2	0	11
- CCOC(=O)C1=CCCN(S(=O)(=O)c2ccc(C)cc2)C1
  nt	0.7	-6	0	32	7
- Cc1cnc(C(=O)OCC(=O)N(C(C)C)C(C)C)cn1
  -14	-0.4	-12	6	5	-3
- Cc1ccc(C(=O)Nc2nc(C(N)Cc3ccc(C(F)(F)F)cc3)cs2)cc1 (stereo not drawn)
  nt	0.6	-6	2	1	nt
- COc1ccc(NC(=O)Nc2cccc(C)n2)cc1
  0	0.8	-3	-1	-9	10
- COc1ccc(NC(=S)NCCCc2ccccc2)cc1
  -23	0.4	-13	nt	5	-7
- N#Cc1nc(COc2ccccc2F)oc1N1CCCCCC1
  -7	-0.1	7	?	?	5
- COc1cc(/C=C2\SC(=Nc3ccccc3)N(CCc3c[nH]c4ccccc34)C2=O)ccc1OC(C)C(=O)O (stereo not drawn)
  ?	-0.4	4	-4	-1	-6
- Cc1cc(NC(C)C)n2c(nc3ccccc32)c1C#N
  -5	-0.5	-5	-15	-9	-20
- O=C1CCc2cc(S(=O)(=O)Nc3ccc(C(F)(F)F)cc3)cc3c2N1CC3
  9	1.0	-9	3	0	13
- CCCCC(=O)OCc1cn(-c2ccc(Cl)cc2)nn1
  -23	-1.1	-3	20	17	3
- COc1cccc(/C=C2/Oc3ccccc3N(CC(=O)NCC3CCCO3)C2=O)c1 (stereo not drawn)
  -8	-1.0	17	11	6	-6
- COc1ccccc1N1CCN(C(=O)C2CCCN(S(=O)(=O)c3ccc4c(c3)CCCN4C(C)=O)C2)CC1 (stereo not drawn)
  10	-0.3&-1.0	-1	-6	-5	2&-8
- COc1ccc(S(=O)(=O)Cc2ccc(C(=O)NC3CCCCCC3)o2)cc1
  -6	-0.5	-12	1	0	0
- Nc1ncnc2c1ncn2[C@@H]1O[C@H](C(=O)N[C@H]2c3ccccc3C[C@H]2OC=O)[C@@H](O)[C@H]1O
  nt	-0.1	1	1	17	-13
- CCn1c(=O)c(C(=O)Nc2ncccc2C)c(O)c2ccccc21
  0	0.3	-9	-4	-5	-6
- C=C(C)CN(CC)Cc1c(C(=O)N(C)CCCC)nc2ccccn12
  -19	-0.1	-10	1	1	-1
- OC(c1cccc(Cl)c1)c1nc(-c2ccccc2)cs1 (stereo not drawn)
  nt	0.4	3	5	10	nt
- COc1ccc2nc(C)c(C(=O)NN)cc2c1
  -3	-0.1	-10	0	-1	58
- COc1ccc(CNC(=O)COC(=O)c2ccc(OCc3c(C)noc3C)cc2)cc1OC
  -19	2.3	-9	-3	5	-18
- CCOC(=O)c1c(C)c(C(=O)NCc2cccnc2)c(C)n1C
  -8	0.6	4	5	-1	0
- Cc1ccccc1NC(=O)COc1cccc2c1CCNC2=O
  ?	0.0	-12	0	-15	3
- COCCNC(=O)c1onc(CSc2ccccc2)c1C(=O)NCCOC
  -18	-0.5	-20	-1	3	10
- Cc1cc(C)c(NC(=O)COC(=O)c2cc([N+](=O)[O-])ccc2N2CCOCC2)c(C)c1
  4	-0.8	-11	-10	13	-2
- COc1ccc(C)cc1NC(=O)CN(c1ccc(F)cc1)S(C)(=O)=O
  15	-0.4	-11	2	1	4
- CSC(=Nc1ccccc1)C1=C(O)COC1=O
  24	0.8	-5	8	11	-5
- COC(=O)c1ccc(C2CC(=O)Nc3cc(OC)c(OC)cc32)cc1 (stereo not drawn)
  2	-0.2	-24	9	4	-4
- COC(=O)c1ccc(C(=O)OC)c(NC(=S)N2CCC(N3CCCCC3)CC2)c1
  -26	0.3	-3	nt	3	34

Record cards (already shown):
Cc1ccccc1NC(=O)COc1cccc2c1CCNC2=O reads TRPV1 PAM: ?; TRPML1 ag: 0.0; D2 PAM: -12; CtBP-E1A inh: 0; Six1-Eya2 inh: -15; TRPML1 inh: 3
O=C1CCc2cc(S(=O)(=O)Nc3ccc(C(F)(F)F)cc3)cc3c2N1CC3 reads TRPV1 PAM: 9; TRPML1 ag: 1.0; D2 PAM: -9; CtBP-E1A inh: 3; Six1-Eya2 inh: 0; TRPML1 inh: 13

Following part.
Order of results – TRPV1 PAM	TRPML1 ag	D2 PAM	CtBP-E1A inh	Six1-Eya2 inh	TRPML1 inh
- Cc1ccc(C(=O)NCCNc2ccc(Cl)cc2[N+](=O)[O-])o1
  -14	-0.1	-24	-18	-16	-2
- Cc1cc(-c2ccc(S(=O)(=O)N3CCN(C)CC3)s2)on1
  3	-0.5	-8	5	-1	12
- CN(C)c1ccc(NC(=O)CN2C(=O)CC(c3ccccc3)=Nc3ccccc32)cc1
  11	0.2	-14	-2	-6	-7
- COC(=O)C1=C(C)N(Cc2ccco2)C(=O)N[C@@H]1c1ccc(Br)cc1
  nt	1.8	-2	1	34	-22
- Nc1cc(N)cc(-c2nc3ccccc3[nH]2)c1
  9	-0.3	53*	?	?	-1
- CN(CCCC1CCCC1)C(=O)c1cc(COc2ccc(F)cc2F)on1
  -10	1.9	4	58	42	-7
- COc1ccc(S(=O)(=O)N2CCN(c3nc(C)cc(C)n3)CC2)cc1
  4	0.4	-12	-12	1	9
- Cc1ccc(C(=O)NCC(=O)OCC(=O)Nc2ncc(C(F)(F)F)cc2Cl)cc1
  1	1.3	6	0	14	-12
- CCOC(=O)N1CCN(C(=O)/C(=C/c2ccc(OC)cc2)NC(=O)c2ccccc2)CC1
  6	2.0	11	-4	2	12
- CCOC(=O)c1ccc(NC(=S)N2CCN(C)CC2)cc1
  -2	0.0	-9	9	-3	5
- Cc1ccc(S(=O)(=O)N2CCC(=O)N([C@H](COCc3cccc(Cl)c3)Cc3ccccc3)CC2)cc1
  nt	4.0	nt	-3	-1	nt
- CCOc1nc(NCCN2CCOCC2)nc(Nc2ccc(C)cc2)n1
  -16	0.4	0	-7	-6	-5
- CCCCn1c(SCc2ccc(Cl)cc2)nc2c1c(=O)[nH]c(=O)n2C
  14	0.1	-29	-1	6	-5
- Cc1ccc(C(C(=O)NC2CCCCC2)N(CC2CCCO2)C(=O)CNC(=O)c2cccs2)cc1 (stereo not drawn)
  5	0.3	-9	1	2	-5
- O=C(Nc1ccc(Cl)cc1)N1N=CCC1c1ccccc1 (stereo not drawn)
  ?	0.5	-1	11	8	1
- CC(=O)N1CCC(=NNS(=O)(=O)c2cccc([N+](=O)[O-])c2)CC1
  -4	-0.1	11	-20	3	3
- c1cncc(-c2nc(NCc3ccc4c(c3)OCO4)c3ccccc3n2)c1
  -2	0.9	-8	0	?	-3
- O=c1[nH]nc(-c2ccc(F)cc2)cc1Cc1ccccn1
  -17	-0.9	-18	nt	3	-2
- COc1ccc(Cc2c(-c3ccc(OC)c(OC)c3)nc3c(C)cc(Br)cn23)c(C)c1
  nt	-0.3	-8	-6	-11	-11
- COc1ccc(NC(C)=O)cc1S(=O)(=O)N1CCc2ccccc21
  -8	-1.4	-2	-4	-2	4
- CCCCOCCCNC(=O)c1ccc(OC)cc1
  23	0.5	-12	12	7	11
- CCCCCCOc1ccc(OC(=O)c2ccncc2)cc1
  -5	0.9	10	6	8	0
- Cc1cc(C)n(-c2cc(Cl)ccc2[N+](=O)[O-])n1
  5	2.5	3	0	-2	7
- Cc1c(C(=O)Nc2ccc3oc(-c4cccnc4)nc3c2)oc2ccccc12
  7	0.9	4	-1	7	16
- O=c1[nH][nH]c(-c2ccccc2)c1C=Nc1ccc(F)cc1F
  -11	0.7	0	nt	5	1
- Cc1ccc(N=Cc2c(O)c3ccccc3n(C)c2=O)cc1
  -13	-0.7	-4	1	17	6
- CCOC(=O)C1(CCOc2ccccc2)CCN(Cc2cccs2)CC1
  -4	0.6	-24	7	1	6
- O=C(CC1CCS(=O)(=O)C1)Nc1ccc[nH]c1=O (stereo not drawn)
  3	0.2	-1	0	23	-12
- Nc1ccc(N2CCN(CCCCN3C(=O)C4CCCN4C3=O)CC2)cc1 (stereo not drawn)
  -1	0.3	-16	-4	-5	-15
- O=C(O)c1ccccc1NCN1C(=O)C2CC=C(Cl)CC2C1=O (stereo not drawn)
  0	-0.8	-3	-2	-3	-3
- CCOC(=O)C(Sc1n[nH]c(N)n1)c1ccccc1 (stereo not drawn)
  7	1.1	-8	0	27	24
- CCC(C)NC(=O)CS(=O)Cc1nc(-c2cccc(C)c2)oc1C (stereo not drawn)
  nt	0.2	-6	1	1	23
- Oc1ccccc1/C=N/Nc1cccc2cccnc12
  25	0.6	24	0	-2	7
- CCN(CC(=O)Nc1ccc(NC(C)=O)cc1)C(=O)c1n[nH]c(=O)c2ccccc12
  -1	0.1	-1	-3	0	-5
- COCC1CCCCN1C(=O)c1cccc(OC2CCN(S(C)(=O)=O)CC2)c1 (stereo not drawn)
  ?	0.6	-32	-19	-15	-6
- O=C(NC1CCCCC1)c1ccc(-c2cccc([N+](=O)[O-])c2)o1
  -11	2.1	-9	1	-2	10
- CCN1C(=NCCCOC(C)C)N[C@@H](c2ccccc2)[C@H](C(=O)OC)[C@H]1C
  -20	-0.6	-15	6	7	2
